VDR inh = blocks the human vitamin D receptor. P11473. VDR-SRC2-3 peptide fluorescence polarization, 2 h. Potency, µM, for inactives: max response, negative = inhibition, actives largely listed as inhibitors. hit rate 0.93% among 400,000. AID 504847; active means well fitted inhibition curve with a large enough effect; inconclusive means small, poorly fitted or top-dose-only effect, or another doubt; inactive means no such curve, though single readings can be large or run the other way; further: series mostly up to about 120 µM
Target sequence (P11473 whole entry, looked up): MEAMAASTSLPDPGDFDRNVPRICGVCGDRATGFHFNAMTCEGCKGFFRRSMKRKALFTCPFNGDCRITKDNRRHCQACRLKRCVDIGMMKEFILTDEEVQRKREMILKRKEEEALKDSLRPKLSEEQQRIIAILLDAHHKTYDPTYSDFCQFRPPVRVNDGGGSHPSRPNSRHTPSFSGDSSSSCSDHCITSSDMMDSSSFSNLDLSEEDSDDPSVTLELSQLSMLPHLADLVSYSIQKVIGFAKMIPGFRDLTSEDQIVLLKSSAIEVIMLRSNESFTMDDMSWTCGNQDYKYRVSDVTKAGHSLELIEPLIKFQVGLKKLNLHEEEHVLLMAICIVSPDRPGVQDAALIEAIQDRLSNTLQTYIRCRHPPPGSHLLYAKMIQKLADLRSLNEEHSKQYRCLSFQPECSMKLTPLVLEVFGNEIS
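Fluorescence polarization assay of small-molecule disruption of VDR binding to coregulator peptide SRC2-3. Compounds and controls pin-transferred, then read after 2 h incubation at ambient room temperature.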
The depositor's hits bear a star; u = inconclusive; & = joins results of further samples; [ ] = dose if it differs, or a comment. On the % scale 0 is the no-effect control and ±100 the full control effect; potency means the concentration at half of the fitted maximal effect.

SMILES	VDR inh
COc1ccc(-c2noc(N3CCCC(C(=O)Nc4cc(F)ccc4F)C3)n2)cc1 (centres undefined)	-7.8%
Cc1ccc(-n2c(SCC(=O)NCc3ccccc3)nc3c([nH]c4ccccc43)c2=O)cc1	-1.2%
COc1ccc(OC)c(C(=O)COC(=O)c2[nH]c(C)c(C(C)=O)c2C)c1	8.9%
CC(C)c1ccc(NC(=S)NCc2ccc3c(c2)OCO3)cc1	4.7%
CN(C)CCN1C(=O)c2oc3ccc(F)cc3c(=O)c2C1c1ccncc1 (centres undefined)	1.4%
Cc1ccc(OCC(O)CN2CCOCC2)cc1 (centres undefined)	2.1%
CCN(c1cccc(C(F)(F)F)c1)S(=O)(=O)c1ccc2c(c1)CCN2C(=O)C1CC1	21.3%
CC(C)(C)c1nnc(NC(=O)CN2C(=O)C3C4C=CC(C4)C3C2=O)s1 (centres undefined)	1.6%
CC(=O)OCCC(C)CCC=C(C)C (centres undefined)	-1.0%
Cc1cccc(OCC(=O)NCC(=O)N/N=C/c2c(C)[nH]c3ccccc23)c1	-8.7%
COc1ccccc1NC(=O)Cc1c(F)cccc1Cl	10.1%
CN(C(=O)COC(=O)/C=C/c1ccc(C(F)(F)F)cc1)c1c(N)n(Cc2ccccc2)c(=O)[nH]c1=O	-15.2%
Nc1nc(-c2cccs2)c(-c2cccs2)s1	-4.7%
Cc1cn([C@H](C(=O)NCCCCCCCCCCC(=O)N2CCNCC2)[C@@H](C)O)nn1	-25.3%
C(#CCN1CCC(Cc2ccccc2)CC1)COCCOCc1ccccc1	-5.0%
Cc1ccc(-n2ncc(C(=O)N3CCN(C(=O)c4ccco4)CC3)c2C2CCN(C(=O)OC(C)(C)C)CC2)cc1	8.9%
COc1ccc(C(CNC(=O)c2cccc(S(=O)(=O)N3CCCc4ccccc43)c2)N(C)C)cc1 (centres undefined)	-4.9%
Cc1ccc(C)c(CN2C(=O)c3ccccc3S(=O)c3ccc(C(=O)N(C)Cc4ccccc4)cc32)c1 (centres undefined)	-15.7%
Cc1ccc(S(=O)(=O)c2nnn3c2nc(N2CCN(c4cccc(C)c4C)CC2)c2ccccc23)cc1C	4.1%
Cc1ccc(C)c(N2CCN(c3nc4c(S(=O)(=O)c5ccccc5)nnn4c4ccc(Cl)cc34)CC2)c1	2.1%
O=C(O)c1cccnc1Sc1ccc(Br)cc1	4.9%
c1ccc(C2(c3ccccc3)OCC(Cn3cncn3)O2)cc1 (centres undefined)	-9.5%
O=C(c1ccccc1)c1cnc(Nc2ccc(Cl)c(Cl)c2)s1	3.4%
O=C1NCCN1CCNS(=O)(=O)c1cc(C(F)(F)F)cc(C(F)(F)F)c1	0.9%
O=C(COc1ccc(Cl)cc1Cl)NCc1ccco1	6.7%
O=C(c1cnn2c(C(F)F)cc(C3CC3)nc12)N1CCc2ccccc2C1	0.9%
O=C(Nc1ccccc1)OCCCCOC(=O)Nc1ccccc1	-22.9%
Cc1cccc2[nH]c(SCC(=O)O)nc12	1.9%
CC(=O)c1cccc(NC(=O)c2cc(C)no2)c1	-9.0%
COc1cc(/C=C/c2cc[n+](C)cc2)ccc1OCC(=O)Nc1ccc(Cl)c(Cl)c1	-15.1%
Cc1cc(C)cc(OCC(=O)NNC(=S)NC(=O)C2CC2)c1	-0.2%
C=CCn1c(N)c(-c2nc3ccccc3n2C)sc1=S	4.2%
CC(=O)c1sc(NC(=O)CCNC(=O)c2ccco2)nc1-c1ccccc1	6.5%
O=[N+]([O-])c1ccc(O)c(/C=N/NC(=S)Nc2ccc(Cl)cc2Cl)c1	20.2%
Cc1c(C(=O)OCC(=O)NC2CC2)oc2ccc(Br)cc12	5.6%
O=C(Nc1ccc([N+](=O)[O-])cn1)c1ccc(Br)o1	1.2%
Cc1cc(OCC(=O)NCCCN(C)C)cc(C)c1Br	-9.9%
S=c1[nH]nc(Cc2ccc(Cl)cc2)n1-c1ccc2c(c1)OCCO2	-11.0%
Cc1ccc(NC(=O)c2sc3nc(CCl)[nH]c(=O)c3c2C)c(C)c1	2.1%
CN1CCN(c2ccccc2NC(=O)c2ccc(N3CCCCC3)c([N+](=O)[O-])c2)CC1	-6.2%
Cc1ccc(Cl)cc1N(CC(=O)NC1CCCCC1)S(C)(=O)=O	-3.4%
O=C(Nc1ccccc1)N1CCN(c2nc3ccccc3s2)CC1	2.7%
Cc1c(C(=O)NCc2cccnc2)oc2c1C(=O)CC(C)(C)C2	-7.4%
COc1cc(OC)cc(C(=O)NC(C(=O)N2CCc3ccccc3C2)C(C)C)c1 (centres undefined)	13.4%
O=C(O)Cc1nn(Cc2ccc(Cl)cc2)c(=O)c2ccccc12	4.1%
Cc1nc(N(C)C)c2sc(=S)n(Cc3ccccc3)c2n1	-3.4%
Cc1cc(C(=O)N2CCN(c3ccc([N+](=O)[O-])cc3)CC2)n[nH]1	-10.1%
COc1ccc(OC)c(CCNC(=O)c2cc3cccc4c3n2CC(C)S4)c1 (centres undefined)	12.3%
O=C(COc1cccc(Oc2ccccc2)c1)Nc1ccc(SC(F)F)cc1	6.2%
CC(C)N1CC(C(=O)Nc2ccccc2)CC1=O (centres undefined)	14.5%
Cc1noc(C)c1CSc1ccccc1C(=O)OC(C)C(N)=O (centres undefined)	14.6%
CCCCCCc1cc2cc(-c3cn4c(n3)sc3cc(OC)ccc34)c(=O)oc2cc1O	21.4%
CC(=O)Nc1ccc(Nc2nc3ccc(Cl)cc3n3cnnc23)cc1	2.0%
CNCC(O)c1ccc(OC(=O)C(C)(C)C)c(OC(=O)C(C)(C)C)c1 (centres undefined)	-11.2%
Fc1ccc2cnc(-c3ccccc3)c(-c3cc(C(F)(F)F)cc(C(F)(F)F)c3)c2c1	-33.5%
CNC(=S)Nc1ccc(Cc2ccncc2)cc1	9.6%
COC(=O)c1cc(Br)ccc1NC(=O)Nc1ccccc1	7.8%
C[C@H](NC(N)=O)C(=O)Nc1ccc(OCc2ccccc2)cc1	0.2%
CCC(=O)N1CCc2cc(S(=O)(=O)CCC(=O)NCc3ccc4c(c3)OCO4)ccc21	8.1%
Cc1ccc(C2=N/C(=C\c3cccs3)C(=O)N2Nc2ccccc2)cc1	19.3%
Further compounds:
SMILES	VDR inh
Cc1ccc2sc(NC(=O)CN3C(=O)c4ccccc4C3=O)nc2c1C	-2.5%
CCCCn1c(SCc2nc(N)nc(Nc3ccccc3C)n2)nc2ccccc2c1=O	-1.9%
Cc1nnc(SCC(=O)c2ccccc2F)n1Cc1ccccc1	u
Cc1cc(C)c(NC(=O)CN2CCN3CCCC3C2)c(C)c1 (centres undefined)	-8.4%&11.0%
COc1ccc(-c2onc(C)c2-c2cscn2)c(O)c1	1.1%
Cc1ccc(-c2nn(C)c(=O)c3ccccc23)cc1S(=O)(=O)NCCCN(C)C	-13.8%
Cc1ccc(N2CCN(C(=O)c3cc4cc5ccc(C)cc5nc4s3)CC2C)cc1 (centres undefined)	1.3%
Cc1ccc(C(=O)OCN2C(=O)c3ccccc3C2=O)cc1S(=O)(=O)N1CCOCC1	0.0%
Nc1ccc(S(=O)(=O)Nc2cnc3ccccc3n2)cc1	2.8%&-8.0%&9.1%&4.3%
CCC(C)(C)NC(=O)C(c1ccccc1F)N(Cc1ccco1)C(=O)Cn1nnc2ccccc21 (centres undefined)	5.1%
CNC(=O)c1ccsc1NC(=O)C1CCCN1S(=O)(=O)c1cccs1 (centres undefined)	5.7%
O=C(NC1(O)C(=O)c2ccccc2C1=O)c1c(Cl)cccc1Cl	u
O=C(Oc1ccc(Br)cc1)c1n[nH]c(=O)c2ccccc12	-18.9%
COCc1cc(C)nc(SCC[N+](C)(C)CC(=O)Nc2cccc(C(F)(F)F)c2)c1C#N	4.9%
NC(=S)N=Nc1c(O)cc(O)c2[nH]c(=O)ccc12	u
CCOc1ccc(CCNC(=O)COC(=O)/C=C/c2ccco2)cc1OCC	14.7%
COc1ccc2c(c1)C(=O)[C@@H](OC(=O)NCCOc1ccccc1)[C@H](c1ccc(OC)c(Br)c1)O2	-0.6%
Cc1ccc(-n2nc3ccc(N)cc3n2)cc1C	-0.3%
CCn1c(=O)c(C(C)=O)c(O)c2ccccc21	-2.4%
CCC(C)[C@H](NC(=O)N1CC(=O)Nc2ccccc21)C(=O)N[C@H](C(=O)O)c1ccccc1 (some centres undefined)	4.0%

3 compounds from above, ordered by the value under VDR inh, smallest number first.
molecule | VDR inh
Cc1ccc(N2CCN(C(=O)c3cc4cc5ccc(C)cc5nc4s3)CC2C)cc1 (centres undefined) | 1.3%
CNC(=O)c1ccsc1NC(=O)C1CCCN1S(=O)(=O)c1cccs1 (centres undefined) | 5.7%
CCOc1ccc(CCNC(=O)COC(=O)/C=C/c2ccco2)cc1OCC | 14.7%

The list goes on.
SMILES	VDR inh
Cc1ccc(S(=O)(=O)c2nnn3c2nc(Nc2cccc(C)c2)c2ccccc23)cc1	3.8%
Cc1ccc(S(=O)(=O)NCc2ccncc2)cc1C(=O)NCC(C)C	-10.6%
COc1ccc(C(=O)Nc2nnc(S(=O)(=O)Cc3ccc(F)cc3)s2)cc1	-3.9%
COc1ccccc1-n1c2c(cc(C(=O)N3CCC(C)CC3)c1=O)C(=O)CC(C)(C)C2	u
C=CCSc1nc(N)c(C(=O)Nc2ccccc2OC)cc1C(=O)Nc1ccccc1	-1.3%
CC(C#N)Sc1ccc(S(=O)(=O)N2CCCC2)cn1 (centres undefined)	-17.8%
COC(=O)c1cc(Br)c(=O)n(Cc2ccco2)c1	-6.6%
CCOc1cc(/C=N/n2c(C)nc3sc(C)c(C)c3c2=O)ccc1O	-3.1%
COc1ccccc1C(=O)Nc1onc2c1CCCC2	-4.8%
Cc1ccc(NC(=O)c2nnn(CC(=O)Nc3ccc4c(c3)OCO4)c2N)cc1C	-3.9%
Cc1ccc(S(=O)(=O)/N=C/c2ccco2)cc1	22.6%
O=C(NCC(c1ccc(F)cc1)N1CCOCC1)c1c(F)cccc1F (centres undefined)	-7.1%
Nc1c(N2CCN(c3ccccc3)CC2)c2ccccc2oc1=O	13.9%
COc1ccc(C(CNC(=O)c2cc(F)c(F)c(F)c2F)N2CCOCC2)cc1 (centres undefined)	7.0%
C[C@H](CO)N1C[C@H](C)[C@@H](CN(C)C)Oc2c(NS(=O)(=O)c3cccs3)cccc2C1=O	-1.5%
Cc1ccc(S(=O)(=O)Nc2ccc(C(=O)NCc3cccnc3)cc2)cc1	-5.9%
CC(=O)Nc1ccc(NC(=O)c2ccccc2N(C)S(=O)(=O)c2ccc(C)cc2)cc1	-1.6%
CCC1CCc2c(sc(NC(=O)c3ccoc3C)c2C(N)=O)C1 (centres undefined)	-9.8%
COc1ccc(NC(=O)CSc2nc(NS(=O)(=O)c3ccccc3)cc(=O)[nH]2)cc1	-3.8%
O=C(NCCCl)NNc1c(Cl)cc(Cl)cc1Cl	5.1%

Three entries already listed, ordered by molar mass, highest first.
SMILES	VDR inh
C=CCSc1nc(N)c(C(=O)Nc2ccccc2OC)cc1C(=O)Nc1ccccc1	-1.3%
Cc1ccc(S(=O)(=O)c2nnn3c2nc(Nc2cccc(C)c2)c2ccccc23)cc1	3.8%
O=C(NCCCl)NNc1c(Cl)cc(Cl)cc1Cl	5.1%

The list goes on.
SMILES	VDR inh
CCOc1ccc(S(=O)(=O)Nc2cc(SCC(=O)O)c(O)c3ccccc23)cc1	17.8µM*
Cc1cc(C)n(-c2nc(NCc3cccnc3)c3c4c(sc3n2)COC(C)(C)C4)n1	-7.6%
COc1ccc(N(CC(=O)Nc2cccnc2)S(C)(=O)=O)cc1	7.7%
O=S(=O)(c1ccc(SCc2ccccc2)nc1)N1CCCCCC1	-3.9%
CNC(=S)NCCN1CCOCC1	-3.4%
CCCCN(C(=O)c1ccccc1Br)C1CCS(=O)(=O)C1 (centres undefined)	u
O=C1Nc2cc(C(=O)N3CCN(c4ccc(F)cc4)CC3)ccc2NC1CSCc1cccc(F)c1 (centres undefined)	u
CN(C)c1ccc(SC#N)cc1	-11.4%
O=c1ccc(-c2ccccc2)nn1Cc1ccc(F)cc1	53.5%[activator]
CCN1CCN(C(=S)NCCOC)CC1	-17.7%
CC(NC(=O)C1CCN(C(=O)c2ccc(F)cc2)CC1)c1ccc(S(N)(=O)=O)cc1 (centres undefined)	-3.3%
CN(CC(=O)Nc1ccccc1Cl)C(=O)COC(=O)CNC(=O)c1ccc(Br)o1	14.4%
NC(=O)C1CCN(C(=O)C2CC(=O)N(c3ccc(F)cc3)C2)CC1 (centres undefined)	2.4%
N#CCCN1CCN(S(=O)(=O)c2ccc(S(=O)(=O)NC3CCCC3)cc2)CC1	-0.9%
O=C(Cc1ccccc1)Nc1ccccc1C(=O)NCC1CCCO1 (centres undefined)	0.4%
O=C(O)c1cc(-c2ccc(Cl)s2)[nH]n1	6.3%
COc1ccccc1N1CCN(CCCCOc2c(OC)cccc2OC)CC1	-4.4%
NC1(C(=O)O)C[C@@H](C(=O)O)[C@H](C(=O)O)C1	6.2%&6.4%&18.7%
CCOc1ccc2nc(N3CCCCCC3)sc2c1	9.1%
COc1cc(OC)cc(-c2nnc(SCC(=O)Nc3ccc(C(=O)O)cc3)s2)c1	18.6%
COc1ccc(-c2nc3ccccn3c2NCc2ccc3c(c2)OCO3)cc1	2.0%
CCCCCN(C(=O)CCC(=O)OCC(=O)N(CC)c1ccccc1)c1c(N)n(CCCC)c(=O)[nH]c1=O	-13.8%
CC1(c2ccc([N+](=O)[O-])c(CS(=O)(=O)c3ccccc3)c2)OCCO1	3.1%
COc1cc(O)c(C(CC(=O)N2CCN(c3ccccc3)CC2)c2ccc3c(c2)OCO3)c(OC)c1 (centres undefined)	1.9%&-0.8%
CCOc1ccc(S(=O)(=O)N(C)CC(=O)NC2CCCC2)cc1	-0.4%
CC(OC(=O)CCN1C(=O)C2CC=CCC2C1=O)C(=O)Nc1cccc(Cl)c1 (centres undefined)	0.2%
CCOc1ncccc1C(=O)Nc1cc(S(=O)(=O)N2CCCCC2)ccc1C	-7.5%

At a glance, some entries already given:
SMILES	VDR inh
CCOc1ccc(S(=O)(=O)N(C)CC(=O)NC2CCCC2)cc1	-0.4%
CC(OC(=O)CCN1C(=O)C2CC=CCC2C1=O)C(=O)Nc1cccc(Cl)c1 (centres undefined)	0.2%
CCOc1ncccc1C(=O)Nc1cc(S(=O)(=O)N2CCCCC2)ccc1C	-7.5%

Assay outcomes as filed in PubChem.

Not all compounds are listed. The share of hits here may be higher or lower than overall.
